Screening results (PubChem BioAssay)
Cruzain noTriton = inhibitors of Trypanosoma cruzi cruzain without detergent. P25779. purified cruzain, Z-FR-AMC fluorescence, no detergent. Potency, µM, for inactives: max response, negative = inhibition, actives largely listed as inhibitors. 2.3% of 200,000 active;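 also: plate controls were enzyme without inhibitor for no effect and buffer without enzyme for full effect; nearly all actives have a fitted effect of over 40% in size; top concentration of the series not given in the record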
Target sequence (P25779 123-467 limits assumed): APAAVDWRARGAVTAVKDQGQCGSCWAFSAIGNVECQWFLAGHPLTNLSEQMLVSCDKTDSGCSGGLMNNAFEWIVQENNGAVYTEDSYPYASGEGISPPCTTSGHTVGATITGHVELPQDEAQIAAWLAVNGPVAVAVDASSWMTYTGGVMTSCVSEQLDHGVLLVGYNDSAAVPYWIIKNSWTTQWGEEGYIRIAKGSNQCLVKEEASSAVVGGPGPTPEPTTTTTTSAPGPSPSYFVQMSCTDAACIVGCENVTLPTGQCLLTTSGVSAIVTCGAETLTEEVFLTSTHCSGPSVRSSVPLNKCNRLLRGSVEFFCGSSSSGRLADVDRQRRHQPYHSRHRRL
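Purified cruzain at 1.5 nM, pre-incubated 15 min with compound at room temperature in 100 mM sodium acetate pH 5.5, 5 mM DTT, 0.00005% Triton X-100. Reaction started with 2 uM Z-FR-AMC; AMC fluorescence increase over 60 s gives rate.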
LASV entry inh = blocks Lassa virus binding to or entry into cells; Lassa virus pseudotype entry inhibition, cell reporter; control for the full effect not named in the record; 1.2% of 300,000 active; Potency, µM (top dose mostly 37.9 µM), without a hit: top-dose activity change, negative = inhibition, most hits filed as inhibitors; active means well fitted inhibition curve with a large enough effect; inconclusive means small, poorly fitted or top-dose-only effect, or effect the other way; inactive means flat fitted curve, though single readings scatter; tested in HEK293 cells; also: % is scaled to controls: 0 for no effect and ±100 for the full control effect; nearly all actives have a fitted effect of over 50% in size; luciferase read-out
SARS PLpro yeast = blocks SARS-CoV papain-like protease in a yeast assay; AID 485353; S. cerevisiae expressing SARS-CoV PLpro, growth rescue; control for the full effect not named in the record; Potency, µM (top dose mostly 32.9 µM), for the others: at the top dose activity, positive = growth rescue; 0.19% of 330,000 active; active means well fitted rising curve with a large enough effect; inconclusive means small, poorly fitted or top-dose-only effect; inactive means no such curve, though single readings can be large or run the other way; also: 0% is about no effect; nearly all actives have a fitted effect of over 55% in size; growth read by luminescence after 48 h
StopGo reporter = lowers the luciferase signal of an FMDV 2A StopGo reporter | human cells with a luciferase reporter of 2A StopGo recoding; control for the full effect not named in the record | Potency, µM (titrated, usually from 57.9 µM), for the others: at the top dose signal change, negative = less light | 1.2% of 410,000 active; active = well fitted falling curve with a large enough effect; inconclusive = small, poorly fitted or top-dose-only effect; inactive = no such curve, though single readings can be large or run the other way; tested in HEK293T cells; also: % is scaled to controls: 0 for no effect and ±100 for the full control effect; nearly all actives have a fitted effect of over 45% in size; luciferase light after 4 h
Cruzain inh Det = blocks cruzain activity in presence of Triton detergent | 0.43% of 200,000 active | purified cruzain, Z-FR-AMC fluorescence, 0.01% Triton | Potency, µM, inactives show max response, negative = inhibition, most hits filed as inhibitors | AID 1478;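 also: plate controls were neutral wells for no effect and buffer without enzyme for full effect; nearly all actives have a fitted effect of over 40% in size; top concentration of the series not given in the record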
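Z-FR-AMC hydrolysis (2 uM substrate) by cruzain (1.5 nM) monitored kinetically at ex 360/em 450 nm after 15 min room-temperature compound exposure; 0.01% Triton X-100, pH 5.5, 5 mM DTT.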
NS1 function inh = inhibitors of influenza NS1 protein function | S. cerevisiae slowed by influenza A NS1, growth recovery by OD600 | Potency, µM (series often up to 46.1 µM), inactives show at the top dose activity, positive = more growth | 0.4% of 270,000 active | AID 2326; active means well fitted rising curve with a large enough effect; inconclusive means small, poorly fitted or top-dose-only effect; inactive means no such curve, though single readings can be large or run the other way; also: nearly all actives have a fitted effect of over 50% in size
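Growth recovery, yeast-based: influenza A NS1 expressed in S. cerevisiae causes slow growth, and suppressors are detected by OD600. The parent strain without NS1 is used as positive control.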
MARV entry inh = inhibitors of Marburg virus binding or cell entry. Marburg virus pseudotyped entry inhibition, cell reporter; control for the full effect not named in the record; about a third of the inactives were read at about 46 µM. Potency, µM (series often up to 37.8 µM), for inactives: at the highest dose activity change, negative = inhibition, hits mostly inhibitors. 1.8% of 300,000 active. AID 540276; active = well fitted inhibition curve with a large enough effect; inconclusive = small, poorly fitted or top-dose-only effect, or effect the other way; inactive = flat fitted curve, though single readings scatter; tested in HEK293 cells; about a fifth of its hits are not listed in these tables; also: % is scaled to controls: 0 for no effect and ±100 for the full control effect; luciferase read-out
RE007 growth inh = less growth of the S. pombe RE007 Vpr strain; S. pombe RE007 Vpr strain, BacTiter-Glo ATP luminescence, 24 h; control for the full effect not named in the record; Potency, µM (highest dose often 92.2 µM), without a hit: at the highest dose activity change, negative = less growth; 0.21% of 360,000 active; active = well fitted falling curve with a large enough effect; inconclusive = small, poorly fitted or top-dose-only effect; inactive = no such curve, though single readings can be large or run the other way;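 also: % is scaled to controls: 0 for no effect and ±100 for the full control effect; nearly all actives have a fitted effect of over 50% in size; the assay follows cell death caused by Vpr and the record does not say whether a fall means rescue or toxicity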
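Fission yeast strain RE007, carrying one chromosomally integrated HIV-1 vpr copy, was seeded at OD 0.01 in PMG+AL medium with 23 nL pinned compound. After 24 h at 30 °C and 99% humidity, viability was read by BacTiter-Glo luminescence.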
An asterisk follows results filed as active; ? = inconclusive; . = not tested or not shown; & = joins results of further samples; [ ] = remark or other dose. Unless noted, calls follow the shape of the dose curve; as a rule, active = well fitted curve in the direction sought with a large enough effect; inconclusive = small, poorly fitted or top-dose-only effect, or another doubt; inactive = no such curve, though single readings can be large; an effect the other way counts as inactive or inconclusive. Potency is read from the fitted curve at half-maximal effect.

SMILES	Cruzain noTriton	LASV entry inh	SARS PLpro yeast	StopGo reporter	Cruzain inh Det	NS1 function inh	MARV entry inh	RE007 growth inh
O=C(NCc1ccco1)C(=O)NCC1OCCN1S(=O)(=O)c1ccc(F)cc1 (stereo unspecified)	4%	-7%	-12%	0%	-1.6%	10%	6%	-3%
COc1cc2c(cc1OC)CN(C(=O)c1cc(S(=O)(=O)N3CCOCC3)ccc1C)CC2	.	22%	0%	-11%	.	.	2%	14%
Cc1ccc(S(=O)(=O)N2CN(CC3CCCO3)c3nc4ccccc4nc32)cc1 (stereo unspecified)	.	?	3%	11%	.	-5%	22%[46.1 µM]	-9%
Cc1cccc(C)c1NC(=O)CN(C)CC(=O)Nc1ccc(C#N)c(Cl)c1	-4%	7%	6%	?	-5.7%	-2%	?	7%
Nn1c(COc2ccc(Cl)cc2)nc2ccccc2c1=O	3%	24%	0%	34%[activator]	-0.3%	-4%	-25%	-24%
CCCN(CCC)CCCNC(=O)CC(C(=O)N1CCc2ccccc21)n1ccnc1 (stereo unspecified)	-9%	-5%	0%	-8%	3.3%	2%	-12%	8%
COc1ccc(NC(=S)N2CCC(NC(=O)c3cccc(F)c3)CC2)cc1	.	2%	-1%	-10%	.	5%	-5%[46.1 µM]	-2%
C/C(=N\Nc1ccccn1)c1ccc(C(C)C)cc1	.	28%	9%	42%[activator]	.	.	?	-1%
N#C/C(=C\c1ccc([N+](=O)[O-])o1)c1nc2ccccc2[nH]1	?	.	-111%	25µM*	-3.2%	-28%	-1%	3%
O=C(CCCn1c(=S)[nH]c2ccccc2c1=O)NCc1ccco1	-8%	-1%	.	-2%	0.5%	-6%	0%	18%
CCCC(C)NC(=O)Cc1ccccc1[N+](=O)[O-] (stereo unspecified)	9%	2%	10%	-18%	-0.6%	4%	-15%	4%
Cc1cccc(N2CCn3c2nc2c3c(=O)n(CCc3ccccc3)c(=O)n2C)c1	2%	-3%[46.1 µM]	.	-15%	-0.8%	.	.	.
COC(=O)c1cccnc1-n1c(=O)c2cccnc2n(CC(=O)Nc2cccc(C(F)(F)F)c2)c1=O	?	8%[46.1 µM]	.	-13%	-6.2%	.	-6%[46.1 µM]	.
N/C(=N\OC(=O)Cc1ccccc1)c1ccc(Br)cc1	8%	6%	-17%	33%[activator]	-3.7%	-14%	?	-3%
Cc1ccc(-c2cc(C(=O)N/N=C/C(Br)=C/c3ccccc3)n[nH]2)o1	.	?	-17%	-10%	.	-10%	?	-3%
COC(=O)c1cccc(NC(=O)CSc2nncn2-c2ccccn2)c1	.	.	-1%	0%	.	13%	?	11%
CCOCCOC(=O)c1ccc(-n2cncn2)nc1	-2%	29%	15%	16%	9.0%	-46%	14%	2%
COc1ccc(CC(=O)N2C[C@H]3C[C@@H](C2)c2cccc(=O)n2C3)cc1	.	.	-1%	-6%	.	9%	.	-4%
CCN(CC(=O)NCCCn1ccnc1)S(=O)(=O)c1ccc(C)cc1	.	.	-1%	14%	.	0%	?	-22%
CC(C)NC(=O)c1ccccc1NC(=O)C1CC(=O)N(C(C)C)C1 (stereo unspecified)	.	-3%[46.1 µM]	5%	-10%	.	12%	3%[46.1 µM]	4%
COc1ccc(OC)c(NC(=O)C2CCCN(S(=O)(=O)c3c(C)nn(C)c3C)C2)c1 (stereo unspecified)	7%	3%[46.1 µM]	.	-24%&-8%	-1.7%	.	6%[46.1 µM]	2%
COc1ccc(NC2=NC(=S)N(c3cccc(C)c3)C23CCCCC3)cc1	-9%	21%	2%	-9%	3.8%	8%	19%	3%
CC(C)C(=O)Nc1nnc(NC(=S)Nc2ccccc2)s1	.	-9%	2%	56%[activator]	.	.	9%[46.1 µM]	0%
O=C(Cn1ncc2c3ccccc3n(Cc3ccc(Cl)cc3)c2c1=O)NCCCN1CCCC1=O	.	.	-1%	-15%	.	9%	.	-2%
CCCCN(CCCC)S(=O)(=O)c1ccc(NC(=O)c2c(-c3ccccc3)noc2C)cc1	-9%	-22%[46.1 µM]	.	-1%	-7.4%	.	?	.
CC(=O)NC(=O)c1nnn(Cc2ccccc2)c1NC(C)=O	0%	-1%	2%	-26%	2.0%	4%	3%	9%
Nc1c(Cl)ncnc1N/N=C/c1ccc2ccccc2n1	2%	?	.	-13%	-8.2%	-50%	16µM*	?
CCCCn1c(=O)c(CCC(=O)O)nc2ccccc21	.	-17%	1%	-4%	.	.	7%[46.1 µM]	13%
Cc1ccc(N=CC2=C(O)CC(c3ccco3)CC2=O)cc1 (stereo unspecified)	5%	-3%	-12%	30%[activator]	-3.8%	-19%	?	?
CCOC(=O)c1cnc(SCC#N)nc1N	.	0%	1%	17%	.	-2%	0%[46.1 µM]	-10%
CCOc1ccc(NC(=O)c2nnn(-c3ccc(F)c(Cl)c3)c2C)cc1	-2%	10%[46.1 µM]	.	1%	-3.0%	.	2%[46.1 µM]	.
O=C(CCNS(=O)(=O)c1ccc(Cl)cc1)N1CCC2(O)CCCCC2C1 (stereo unspecified)	8%	-7%	10%	-24%	4.5%	?	14%	8%
Cc1cccc(NC(=S)NC(=O)c2ccc(Br)o2)c1C	.	.	-1%	47%[activator]	.	9%	.	-18%
CCOc1cc(CNc2ccc(O)cc2)cc(Br)c1OCc1ccccc1F	-5%	?	-22%	-26%	-12%	-26%	-12%	?
COc1ccc(CN(C(=O)c2ccc(-c3ccccc3)[nH]2)C(C(=O)NC(C)(C)C)c2ccncc2)cc1 (stereo unspecified)	.	?	-9%	-26%	.	.	?	-11%
COc1ccc(/C=C2\SC(=S)N(CCC(=O)N(CCO)c3ccccc3)C2=O)cc1OC	.	.	-1%	-19%	.	3%	.	10%
CCCn1nc(C(=O)NNC(=O)CCOc2ccccc2OCC)c2ccccc2c1=O	.	-14%	4%	-16%	.	.	-26%[46.1 µM]	-17%
COc1ccc(C(=O)Nc2ccc3nc4c(c(Nc5ccccc5OC)c3c2)CCCC4)c(OC)c1	-2%	-4%[46.1 µM]	.	-6%	-1.3%	.	2.5µM*	.
O=C(Nc1ccc2nc(SCC(=O)N3CCCC3)sc2c1)c1cccc(F)c1	?	-2%[46.1 µM]	.	?	-9.7%	.	-5%[46.1 µM]	.
O=[N+]([O-])c1ccc(Cl)c(S(=O)(=O)N2CCCCCC2)c1	-1%	-7%	-8%	22%	-5.7%	-19%	6%	7%
C(=N\n1cnc2ccccc21)/c1cccnc1	-6%	?	10%	47%[activator]	-1.1%	-5%	3%	11%
COc1ccc(N2C(=O)/C(=C/c3ccc([N+](=O)[O-])cc3)N=C2C)c(OC)c1	.	11%	0%	?	.	.	-17%[46.1 µM]	-11%
Cc1ccc(S(=O)(=O)N2CCOCC2)cc1NC(=O)COC(=O)CCOc1ccc(C(C)(C)C)cc1	.	-6%	1%	-7%	.	.	20%	6%
CN(CCO)C(=O)C1CCN(c2ncc(C(F)(F)F)cc2Cl)CC1	.	-17%	10%	?	.	-7%	-7%[46.1 µM]	-10%
Cc1ccc(Cl)cc1NC(=S)NCCCSC1CCCCC1	.	?	-15%	?	.	.	?	-11%
O=C(NCc1ccccc1)c1noc2c1CCCC2	-4%	7%	-9%	37%[activator]	-0.1%	-6%	-13%	16µM*
Cc1c(C)n(C)c2ccc(C(=O)NCCCN3CCN(c4ccc(F)cc4)CC3)cc12	.	?	-16%	29%	.	-17%	?	-7%
O=C(COC(=O)c1ccc(S(=O)(=O)N2CCOCC2)cc1)NC1CCCCCCC1	.	1%	3%	-6%	.	.	6%	21%
O=C(Nc1ccccc1)c1ccc(Br)c(S(=O)(=O)N2CCCCC2)c1	7%	?	.	14µM*	-6.6%	.	.	.
COc1ccc(S(=O)(=O)N2CCN(CC(=O)Nc3ccc(C)c(F)c3)CC2)cc1	15%	-19%	-12%	-15%	-2.0%	-115%	0%	6%
The listing continues:
SMILES	Cruzain noTriton	LASV entry inh	SARS PLpro yeast	StopGo reporter	Cruzain inh Det	NS1 function inh	MARV entry inh	RE007 growth inh
Cc1nc2sccn2c1P(c1c(C)nc2sccn12)c1c(C)nc2sccn12	13%	10%	10%	.	6.9%	7%	-23%	13%
COc1ccc(OCCNC(=O)CCCO)cc1	.	.	-1%	3%	.	3%	.	15%
Cc1ccc2c(c1)nnn2C1CCN(S(=O)(=O)c2ccc(C(=O)N3C(C)CCCC3C)cc2)CC1 (stereo unspecified)	-10%	?	4%	?	1.8%	8%	7.9µM*	4%
CC(=O)Nc1sc2c(c1C(c1ccc(F)cc1)N1CCOCC1)CCCC2 (stereo unspecified)	?	-25%	-11%	?	-6.0%	-11%	13µM*	18%
O=C(CNC(=O)c1ccco1)NCc1nc2ccccc2[nH]1	.	.	-5%	-13%	.	8%	.	0%
Cn1c(C(=O)NCCCN2CCCCCC2)cc2c(=O)n(C)c3ccccc3c21	-4%	.	-3%	-4%	?	3%	-1%	2%
Cc1nc2sccn2c(=O)c1S(=O)(=O)N1CCN(c2ccccc2)CC1	.	.	-1%	-18%	.	0%	.	4%
Cc1ccc(NC(=O)CCS(=O)(=O)c2cc3c(cc2Cl)NC(=O)CO3)cc1	.	.	0%	-23%	.	6%	.	1%
CC(=O)c1ccc(NC(=S)NC(=O)c2c(Cl)c(C)nn2C)cc1	14%	0%	16%	12%	-3.2%	1%	-8%	-19%
CC(OC(=O)c1ccc2c(=O)n3c(nc2c1)CCCCC3)C(=O)Nc1ccc(Cl)cn1 (stereo unspecified)	-10%	10%[46.1 µM]	-1%	-8%	-11%	-14%	?	6%
Cn1ncc(C#N)c1/N=C/N1CCCCC1	-7%	-2%	7%	11%	-0.5%	-1%	?	11%
CCCCNC(=O)CCCn1c(=O)c2ccccc2n(Cc2ccccc2C)c1=O	-11%	?	.	0%	-2.6%	.	?	.
CN1CCc2c(sc3c2C(=O)NC(c2cccs2)N3)C1 (stereo unspecified)	-15%	27%	-10%	.	-13%	-57%	16%	-22%
